Screens as filed in PubChem.
PrP UTR inh = inhibition of PrP 5' UTR reporter expression; cell-based PrP 5' UTR mRNA reporter, plate reader; inhibition, % (test concentration not listed); 0.35% of 340,000 active; AID 488862, 2010;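 active means every replicate at 50% or more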;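 further: 0 = median of the neutral control wells; tested in H4 reporter cells; numbers are from one replicate; inactives centre near -14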
RN4220 kill = growth inhibition of S. aureus RN4220, primary screen, OD600 | 16 h | AID 1259311, 2017 | inhibition, % (test concentration not listed) | 0.33% of 330,000 active;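 active means z-score of -3 or lower and OD600 up to 0.18 on both plates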;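 further: plate controls were untreated cells for no effect and reference antibiotic for full effect; stock transfer was 100 nL into about 80 µL; one replicate is shown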
Bead autofluor = compound fluorescence in toxin protease inhibitor counterscreen; AID 624483; fluorescence intensity (test concentration not listed); 3.1% of 360,000 active; compound autofluorescence counterscreen, microsphere flow cytometry; active compounds read high;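 active means at least 3 SD above the mean of all compounds, about 16000 in these data; inconclusive means too few beads counted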;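 further: 100 nL of 1 mM stock went into each well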
BJeLR lethal = MLPCN primary cell-based screen for lethality selective to Ras in HRASV12 cells | 0.17% of 300,000 active | inhibition, % (no concentration beside the values) | BJeLR (HRASV12) viability, CellTiter-Glo ATP luminescence, 48 h; reference of the scale not given here | AID 1554, 2009;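 active means replicate mean above 50%; inconclusive means above 50% but judged a plate artefact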;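 further: 50 nL library stock added to about 25 µL; numbers are from one replicate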
ugtP null kill = growth inhibition of ugtP-null S. aureus, primary screen, RN4220 ugtP deletion, OD600. 0.54% of 330,000 active. 16 h; some inactives read as strong as hits. growth inhibition, % (no concentration beside the values). AID 1259309, 2017;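 active means z-score under -3 and OD600 up to 0.15 on both plates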;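 further: plate controls were untreated wells for no effect and antibiotic for full effect; wells of about 80 µL received 100 nL stock; the first replicate is given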
Mtb hypoxia rep = PubChem AID 1159583. M. tuberculosis hypoxia-regulated fluorescent reporter, fluorescence. fluorescence inhibition, % (no concentration beside the values). 0.1% of 300,000 active;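 active means 35 to 45% if threefold the growth effect, above 45% if 1.5-fold the growth effect; inactive means the rest, general growth blockers included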;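 further: wells of about 50 µL received 100 nL stock; 0% = vehicle wells and 100% = reference inhibitor wells; whole bacteria with a GFP reporter of the hypoxia response; strong numbers were not always called active; many hits fall short of the cut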
Mtb hypoxia rep growth = second read-out of Mtb hypoxia rep, no call of its own (marks repeat the call); growth inhibition, %; measured here: M. tuberculosis growth (absorbance);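 0% = vehicle and 100% = reference antibiotic; read after six days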
An asterisk follows results filed as active; ? = inconclusive; · = no result given.

SMILES	PrP UTR inh	RN4220 kill	Bead autofluor	BJeLR lethal	ugtP null kill	Mtb hypoxia rep	Mtb hypoxia rep growth
CN1C(=O)C(c2ccc([N+](=O)[O-])cc2[N+](=O)[O-])C(=O)N(C)C1=O	-12	2.1	3625	0	-3	18	1
O=C(O)c1[nH]c2ccccc2c1C(c1c(F)cccc1Cl)c1c(C(=O)O)[nH]c2ccccc12	-21	12	4300	4	4	13	5
CC(C)(C)NC(=O)COC(=O)c1ccc(O)cc1	-3	-4.8	3033	-9	-4	·	·
Cc1ccccc1CC(=O)N1CCCC1	-32	-0.5	3274	7	7	16	-2
COc1ccc(S(=O)(=O)Nc2cccc3c2O[C@H](CN(C)C(=O)Nc2ccc4c(c2)OCO4)[C@@H](C)CN([C@H](C)CO)C3=O)cc1	-33	-15	4175	·	-6	9	11
CCCCNC(=S)NN=Cc1cccc(OCC)c1O	·	1.4	·	·	-1	3	-2
Cc1ccnc(NC(=O)c2ccc(Cl)c(S(=O)(=O)N3CCCC3)c2)c1	-37	3.5	5945	12	6	2	8
COc1ccc(NC(=O)c2cnc(SC)nc2C)c(OC)c1	1	5.7	3356	0	9	-4	8
CCCC(=O)Oc1c(S(=O)(=O)c2ccc(C)cc2)c(C)nn1C(C)(C)C	-22	7.0	3305	8	4	1	4
Cc1nc(CCN2C(=O)c3ccccc3C2=O)cs1	-26	4.5	·	2	8	2	8

Next section; the last 3 above are carried over.
SMILES	PrP UTR inh	RN4220 kill	Bead autofluor	BJeLR lethal	ugtP null kill	Mtb hypoxia rep	Mtb hypoxia rep growth
COc1ccc(NC(=O)c2cnc(SC)nc2C)c(OC)c1	1	5.7	3356	0	9	-4	8
CCCC(=O)Oc1c(S(=O)(=O)c2ccc(C)cc2)c(C)nn1C(C)(C)C	-22	7.0	3305	8	4	1	4
Cc1nc(CCN2C(=O)c3ccccc3C2=O)cs1	-26	4.5	·	2	8	2	8
C/C(=N\NC(=O)c1sccc1C)c1cccnc1	-55	·	5747	10	·	·	·
Cc1ccccc1-n1cc[nH]c1=S	-16	4.5	3162	·	2	-1	6
NC(=O)CCC(=O)N1CCCC(C(=O)c2ccc3c4c(cccc24)CC3)C1 (stereo not drawn)	-5	5.6	2586	8	-2	1	-4
Oc1c(C(c2ccco2)N2CCC3(CC2)OCCO3)sc2ncnn12 (stereo not drawn)	-14	-13	5609	-1	-5	2	1
O=c1nc2sc(=Cc3ccc(-c4ccccc4[N+](=O)[O-])o3)c(=O)n2nc1-c1ccccc1	·	4.8	·	·	0	0	1
CCn1c(=O)cc(SCC(=O)NCc2ccc(C)cc2)c2ccccc21	-1	1.1	8443	-6	-11	2	9
COc1ccc(/C=c2/sc3n(c2=O)C(c2ccccc2OC)C2=C(N=3)c3ccccc3CC2)cc1O (stereo not drawn)	8	·	9325	-7	·	·	·
O=C(Cc1ccccc1)Nc1ccc2c(c1)C(=O)N(CC1CCCO1)C2=O (stereo not drawn)	-22	2.4	2195	3	11	10	11
Cc1ccc(NC(=S)N(CCCN2CCOCC2)Cc2ccccn2)cc1	-29	-5.3	8443	-8	-2	-6	-3
Cc1ccc(S(=O)(=O)CC(C)(O)C(=O)Nc2cccc(C(F)(F)F)c2)cc1 (stereo not drawn)	·	3.0	7746	5	2	10	2
COc1cc2c(cc1OC)C(c1ccccc1Cl)N(C)CC2 (stereo not drawn)	-12	7.8	4345	-3	3	-2	5
Cc1cc(C)c2nc(NC(=O)C3CSC4(C)CCC(=O)N34)sc2c1 (stereo not drawn)	4	1.7	6052	·	-3	-10	0
S=C(NCc1ccco1)N1CCN(c2cccc(Cl)c2)CC1	6	-2.2	3655	19	9	6	13
CC(=O)Nc1ccc(NC(=O)Cn2nc(C(=O)Nc3ccc(C)cc3)ccc2=O)cc1	-22	2.9	4933	5	-5	3	-2
CCC(c1nnnn1C(C)(C)C)N1CCN(Cc2ccccc2OC)CC1 (stereo not drawn)	-17	8.2	3410	1	5	8	-1
CCCc1cc(=O)[nH]c(SCC(=O)N(CC)Cc2ccccc2)n1	-6	9.0	2800	-3	4	12	10
Cc1nc(C)c(C(=O)C2=C(O)C(=O)N(CCCn3ccnc3)C2c2ccc(Cl)cc2)s1 (stereo not drawn)	-44	4.1	2772	6	2	·	·
CCc1nnc(NC(=O)CSc2nc3cc4c(cc3cc2C)OCCO4)s1	-16	4.7	15848	-5	5	3	-4
CCOc1ccccc1Nc1nnc(SCC(=O)N2CCCC2)s1	-20	0.7	8546	-1	-1	8	5
Cc1ccc(NC(=O)Nc2sc(=S)n(C)c2C)cc1	-24	2.5	4555	8	3	-1	1

The closing 3 entries of the part above open the next one:
SMILES	PrP UTR inh	RN4220 kill	Bead autofluor	BJeLR lethal	ugtP null kill	Mtb hypoxia rep	Mtb hypoxia rep growth
CCc1nnc(NC(=O)CSc2nc3cc4c(cc3cc2C)OCCO4)s1	-16	4.7	15848	-5	5	3	-4
CCOc1ccccc1Nc1nnc(SCC(=O)N2CCCC2)s1	-20	0.7	8546	-1	-1	8	5
Cc1ccc(NC(=O)Nc2sc(=S)n(C)c2C)cc1	-24	2.5	4555	8	3	-1	1
CCOc1ccc(CCNC(=O)CCS(=O)(=O)c2ccc(OC)cc2)cc1OCC	-21	4.0	2625	0	-2	7	5
CCOCc1nnc(NC(=O)CCc2ccccc2)s1	-44	-0.1	2794	4	3	·	·
Cc1cc(Cl)ccc1OCCCC(=O)NNC(=O)c1ccccc1O	-9	6.9	·	-7	-2	-2	4
COc1ccc(C2CC(c3ccccc3)=NN2C(=O)COC(=O)c2cccc(O)c2)cc1 (stereo not drawn)	-28	5.1	3976	·	1	4	4
COCCNc1nc2nonc2nc1N(C)Cc1ccc(C)cc1	-23	5.7	4459	-3	4	0	-8
COc1ccc(C(CC(=O)N2CCCCC2)c2c(OC)cc(OC)c3c(-c4ccccc4)cc(=O)oc23)cc1 (stereo not drawn)	-21	8.7	3821	-14	10	4	4
O=C(/C=C/c1ccco1)c1cccnc1	-19	-0.4	3617	-4	-3	6	-2
Cc1nnc(NC(=O)c2cccc(Br)c2)s1	-32	-0.5	4624	-4	12	·	·
Cc1ccc(-n2ncc3c(NNC(=O)c4ccco4)ncnc32)cc1Cl	-24	1.0	5725	-9	-12	-19	5
CCc1ccc(CNn2cnnc2SCC(=O)NC(C)(C)C)cc1	-4	3.5	16664*	2	7	-3	-2

Part of the list above in order of molar mass, ascending.
SMILES	PrP UTR inh	RN4220 kill	Bead autofluor	BJeLR lethal	ugtP null kill	Mtb hypoxia rep	Mtb hypoxia rep growth
O=C(/C=C/c1ccco1)c1cccnc1	-19	-0.4	3617	-4	-3	6	-2
CCOCc1nnc(NC(=O)CCc2ccccc2)s1	-44	-0.1	2794	4	3	·	·
Cc1cc(Cl)ccc1OCCCC(=O)NNC(=O)c1ccccc1O	-9	6.9	·	-7	-2	-2	4

More results:
SMILES	PrP UTR inh	RN4220 kill	Bead autofluor	BJeLR lethal	ugtP null kill	Mtb hypoxia rep	Mtb hypoxia rep growth
CCN(CC)c1cc(C(F)(F)F)nc(-c2ccccn2)n1	-12	3.4	8722	3	4	7	9
NC(=O)CC(NC(=O)Cc1ccc(Br)cc1)c1ccc(NCc2ccccn2)c([N+](=O)[O-])c1 (stereo not drawn)	-21	6.0	3143	-14	3	20	11
CSCC[C@H](NC(=O)c1cccc(S(=O)(=O)N2CCN(C)CC2)c1)c1nc2ccccc2[nH]1	5	5.8	4203	·	-1	-2	5
Clc1ccc(-c2ccc(C=Nc3ccc(N4CCOCC4)cc3)o2)c(Cl)c1	-16	2.6	2577	-9	-3	1	3
CCc1cc(C(=O)Nc2cc(S(=O)(=O)N(CC)CC)ccc2N2CCOCC2)sc1C	-4	5.9	·	-1	5	5	2
Cn1c(C2CCCCC2)nc2c1c(=O)[nH]c(=O)n2Cc1ccccc1	-60	3.2	5062	0	3	18	13
Cc1cc(C)c2nc(NC(=O)c3cccc(S(=O)(=O)N4CCc5ccccc54)c3)sc2c1	-18	7.8	8400	-18	-22	0	4
CCOC(=O)C(C)Sc1ncc(OC)c(=O)[nH]1 (stereo not drawn)	-16	3.2	3869	-4	3	6	3
Cc1ccc(S(=O)(=O)N(Cc2cccc(C(F)(F)F)c2)C(=O)N2CCN(C)CC2)cc1	-27	1.3	5751	1	8	6	2
COc1ccc(CNC(=O)[C@H](C)NC(=O)C2CCN(S(=O)(=O)c3ccc(F)cc3)CC2)cc1	-10	3.6	5270	4	7	8	-1
O=C(Nc1cccc(F)c1)Nc1ccc2c(c1)CCC2	-74	1.1	6109	-3	-2	1	12
Cc1ccc(OCCNC(=O)CN2C(=O)NC3(CCCC3)C2=O)cc1	-11	1.3	5327	6	4	10	-4
O=C(CSC1=NS(=O)(=O)c2cc(F)ccc2N1)NCCc1ccccc1	-14	0.8	·	0	3	-1	14
CC[C@H](C)/C=C(C)/C=C/C(=O)Cc1cc(O)c(C)c(O)c1C=O	-32	10.0	6317	5	-8	·	·
CC(=O)Nc1ccc(NC(=O)CSc2ccc(-c3cccnc3)nn2)cc1	-28	2.9	6134	-8	16	5	0
NC(=O)c1c(-c2ccc(Cl)cc2Cl)csc1NC(=O)Cc1ccccc1	-12	-9.2	2447	0	13	3	-1
CCOC(=O)c1sc2nc(-c3ccco3)c3c(c2c1N)CC(C)(C)OC3	-5	·	10754	1	·	·	·
CCCCC(CC)C(=O)N1CCN(C(=O)c2ccco2)CC1 (stereo not drawn)	-5	0.9	3195	8	3	6	-2
COc1ccccc1CNn1c(-c2cccc(C)c2)nc2ccccc2c1=O	-22	2.9	8788	3	-11	4	3
O=S(=O)(c1cccc(Br)c1)N1CCN(S(=O)(=O)c2ccc3c(c2)OCCO3)CC1	-16	3.7	3862	·	-11	2	6
C=CCOC(=O)C(=O)C=Cc1c(C)n(C)n(-c2ccccc2)c1=O	·	3.1	·	·	-1	7	13
O=C(/C(=C\c1ccccc1)c1nc2ccccc2[nH]1)c1ccc(Cl)cc1	-89	14	2536	-5	62	20	8
COC(=O)c1ccc(NC(C)=O)o1	-22	4.4	2299	-4	2	·	·
COc1ccc(O)c(C(=O)CC(=O)c2ccc(F)cc2)c1	11	·	2275	18	·	·	·
COc1ccc(-c2c(C#Cc3ccccc3)c3ccccc3n2C)cc1	-20	·	3058	-3	·	·	·
CSCC[C@H](NC(=O)[C@H]1CC[C@H](CNC(=O)[C@@H](N)Cc2ccccc2)CC1)C(=O)O	-14	·	3733	1	·	·	·
CN(C)C1NC(=O)c2cc(-c3ccccc3)sc2N1 (stereo not drawn)	-17	3.3	2849	3	-12	·	·
O=C(Nc1ccc(Cl)c(S(=O)(=O)N2CCOCC2)c1)c1ccccn1	-3	4.4	4030	5	6	13	4
O=C(CSc1nncs1)Nc1cc(-c2ccccc2)nn1-c1ccccc1	-23	1.8	2652	1	-8	5	2
CCOC(=O)N1CCN(C(=O)c2cccc(S(=O)(=O)Nc3ccc(Br)cc3)c2)CC1	-6	-3.2	?	5	-2	-10	1
CS(=O)(=O)Nc1ccc(C2=NN(C(=O)C3CCCCC3)C(c3cccs3)C2)cc1 (stereo not drawn)	-18	-4.5	10908	2	-21	-11	2
CC(C)Cc1nc2sc3c(=O)n(N)cnc3c2c2c1COC(C)(C)C2	-11	2.7	2176	-6	5	6	-3
O=C(NCc1ccccc1F)C1CCCN1S(=O)(=O)c1ccc(F)cc1 (stereo not drawn)	-17	-1.7	3073	-2	5	-2	-2
O=C(CSCc1ccccc1Br)Nc1ccccc1	-32	1.7	3741	-2	3	5	-4
CC(=C(CCO)SSCC1CCCO1)N(C=O)Cc1cnc(C)nc1N (stereo not drawn)	·	10	·	·	-1	12	3
Cc1csc(SCCn2c(N3CCN(c4ccccc4)CC3)nc3c2c(=O)[nH]c(=O)n3C)n1	2	1.2	3145	9	-1	2	8
